# MT1-MMP act inh: inhibitors of human MT1-MMP activation; HT1080 RFP-PRO-GFP cells, GFP/RFP ratio fluorescence, overnight; percent of plate control window, DMSO zero; GFP/RFP ratio change, % at 20 µM; hit rate 0.061% among 360,000; AID 651647; P50281;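 active = GFP/RFP ratio change of at least 30% with cell ATP level not reduced by more than half and red fluorescence within 50% of control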; also: strong numbers were not always called active
#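 Test system: HT1080 RFP-PRO-GFP cells; Benchmarks: DMSO and RFP-L50D-GFP cell wells; Timing: cells overnight before dosing, compound overnight, 37 °C, 5% CO2; Compound: one 20 µM compound dose with 1% DMSO; Read-out: GFP/RFP fluorescence ratio.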
# Rce1 inh: blocks yeast Ras-converting enzyme. Q03530. yeast membranes, quenched prenylated peptide cleavage fluorescence. calls only. hit rate 0.27% among 290,000;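 active = fall in fluorescence gain of 50% or more versus controls, with final raw signal at or below 3038400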;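 also: plate controls were neutral control wells for no effect and wells lacking membranes for full effect; tested at 10 µM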
# Target sequence (Q03530 whole entry, looked up): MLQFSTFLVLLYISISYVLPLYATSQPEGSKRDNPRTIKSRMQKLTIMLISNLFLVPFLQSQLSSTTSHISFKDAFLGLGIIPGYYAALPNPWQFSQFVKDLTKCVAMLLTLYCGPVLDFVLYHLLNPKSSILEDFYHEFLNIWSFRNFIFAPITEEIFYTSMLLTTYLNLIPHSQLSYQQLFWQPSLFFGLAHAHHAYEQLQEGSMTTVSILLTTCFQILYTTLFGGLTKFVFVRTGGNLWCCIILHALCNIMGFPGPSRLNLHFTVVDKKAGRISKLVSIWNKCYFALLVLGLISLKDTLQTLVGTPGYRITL
# eIF4H inh: inhibitors of RNA binding by human eIF4H. Q15056. eIF4H fluorescence polarization binding assay. inhibition, % at 35 µM. hit rate 0.94% among 290,000. AID 2012;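 active = 50% or more with normal probe brightness, or confirmed in later tests; about a fifth of its hits are not listed in these tables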;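 also: calls also rest on retests at 20 µM and on dose response follow-up; 0% = protein and probe with vehicle and 100% = probe without protein; strong numbers were not always called active; many hits fall short of the cut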
# CSC inhib: cancer stem cell inhibition. hit rate 1.1% among 300,000. cancer stem cell-like cells viability, luminescence. inhibition, % at 7.5 µM;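 active = mean at 75% or more and at least half the replicates too; tested in HMLE shEcad cells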;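 also: 0% = median of negative and 100% = median of positive control wells; the first replicate is given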
# Yeast UUG start: modulators of start codon recognition fidelity in yeast; hit rate 0.13% among 350,000; S. cerevisiae UUG-firefly luciferase reporter, luminescence/redox ratio; activity score, % at 18.7 µM; AID 602363;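 active = replicate mean at a twofold rise or more, about +100% in these data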;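 also: firefly luciferase made from a UUG start codon reports start codon fidelity; reporter light over untreated wells divided by growth signal over untreated wells; some hits fall short of that in this replicate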
# PABP FP inh: PABP-poly(A) binding inhibition | P11940 | PABP-poly(A) RNA binding, fluorescence polarization | inhibition, % at 35 µM | hit rate 1% among 290,000 | AID 2014;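 active = 50% or more with normal probe brightness, or confirmed in later tests; about a fifth of its hits are not listed in these tables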;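 also: calls also rest on retests at 20 µM and on dose response follow-up; controls were probe without protein and protein plus probe with vehicle; some compounds called inactive have numbers as strong as hits; many hits fall short of the cut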
# Target sequence (P11940 whole entry, looked up): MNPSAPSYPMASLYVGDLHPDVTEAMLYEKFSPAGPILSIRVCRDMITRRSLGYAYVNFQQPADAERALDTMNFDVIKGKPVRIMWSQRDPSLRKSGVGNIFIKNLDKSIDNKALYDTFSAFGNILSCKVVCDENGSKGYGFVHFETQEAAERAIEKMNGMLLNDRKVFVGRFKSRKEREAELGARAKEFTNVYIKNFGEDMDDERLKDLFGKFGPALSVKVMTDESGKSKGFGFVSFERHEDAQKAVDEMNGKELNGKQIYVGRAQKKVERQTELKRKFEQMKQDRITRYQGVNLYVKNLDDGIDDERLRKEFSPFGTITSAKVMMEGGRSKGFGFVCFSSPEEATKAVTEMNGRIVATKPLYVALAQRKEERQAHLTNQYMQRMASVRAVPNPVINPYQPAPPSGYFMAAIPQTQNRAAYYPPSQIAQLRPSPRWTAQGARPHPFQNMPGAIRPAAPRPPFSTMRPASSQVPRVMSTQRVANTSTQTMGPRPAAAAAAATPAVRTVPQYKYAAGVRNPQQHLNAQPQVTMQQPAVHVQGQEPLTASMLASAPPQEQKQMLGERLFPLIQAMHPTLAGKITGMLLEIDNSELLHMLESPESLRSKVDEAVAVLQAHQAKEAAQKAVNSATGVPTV
# Env fusion inh: HIV envelope-mediated fusion inhibition; AID 651610; HeLa-JRFL Env/CEM21 cell fusion, luciferase; inhibition, % at 12.3 µM; hit rate 1.1% among 360,000;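 active = mean replicate inhibition score of at least 50 and every replicate individually at or above 50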;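 also: 0% = plate neutral controls and 100% = maraviroc near 300 nM; one replicate is shown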
# eIF4H inh retest: also measured in eIF4H inh; calls as there; inhibition, %; compound at 20 µM; confirmation average;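 mean of two retest wells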
# PABP FP inh retest: further read-out of PABP FP inh, marked with its call; inhibition, %; compound at 20 µM; confirmation repeats;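 mean of two retest wells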
# MT1-MMP act inh RFP: also measured in MT1-MMP act inh; calls as there; RFP signal change, %; measured here: RFP expression control read;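 0 = vehicle wells; hits needed this value within 50% of zero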
# * hit, by the source's call; i = inactive; . = no result given; & = joins results of further samples; [ ] = dose if it differs, or a comment. Only part of the results is shown; the hit share may differ from the screen's.
SMILES,MT1-MMP act inh,MT1-MMP act inh RFP,Rce1 inh,eIF4H inh,CSC inhib,Yeast UUG start,PABP FP inh,Env fusion inh,others
Fc1ccc(C2CC(c3ccco3)=Nc3ccccc3S2)cc1 (configuration not stated),-4,-1,i,1,5,.,12,3,
O=C1N(C2CCCC2)C[C@@H]2C[C@@H](c3cccn3-c3nccs3)N3CCC[C@@]123,-4,5,i,8,0,.,6,-2,
CSc1ccc(OC2(C)CCN(Cc3ccc4c(c3)OCCO4)C2)cc1 (configuration not stated),1,7,.,.,.,-4,.,18,
O=C(N/N=C/c1ccc([N+](=O)[O-])cc1)c1cnccn1,.,.,i,2,-7,.,-8,-40,
CC(=O)Nc1ccc(CN2CCN(CC(C)C)C(CCO)C2)cc1 (configuration not stated),1,4,i,-12,-15,.,-2,-1,
COc1ccc(NC(=O)N2CCC(NC(=O)c3ccco3)CC2)cc1,6,3,i,3,-7,33,-1,-15,
CC(C)CC(=O)NC(=S)Nc1sc2c(c1C(N)=O)CCC2,-8,-7,i,-1,-2,.,2,-37,
CC(C)CC(=O)N1CCN(Cc2cccc([N+](=O)[O-])c2)CC1,-5,-6,i,4,7,.,-8,8,
CSc1ccc(/C=C/C(=O)NC23CC4CC(CC(C4)C2)C3)cc1,-3,-3,i,3,56,.,-4,.,
CC1(C)NC(C(=O)O)Cc2c1[nH]c1ccccc21 (configuration not stated),13,10,i,-1,-8,1,11,-6,
COc1cc(C(=O)Nc2ccccc2N2CCN(S(C)(=O)=O)CC2)cc(OC)c1OC,1,3,i,4,4,-9,-2,.,
Fc1ccc(C2c3[nH]c4ccccc4c3CCN2CCCn2cccn2)cc1 (configuration not stated),-7,0,i,5,9,-3,7,4,
CC1CCCN(c2ccc([N+](=O)[O-])s2)C1 (configuration not stated),14,-6,i,32,.,.,-9,-2,
CCCCN(C(=O)c1cnc2n(c1=O)CCS2)c1ccccc1,-4,2,i,2,-16,-6,-4,-8,
Cc1cccc(-c2c3c(=O)n(C)c(=O)n(C)c3cn2C(C)(C)C)c1,1,3,i,-1,-17,-3,12,-62,
CC(C)COc1ccc(C/C(N)=N/n2cnnc2)cc1,-1,-19,i,7,7,-17,-12,33,
O=C(OCC(=O)N(CCc1ccccc1)Cc1ccccc1)c1cccc(O)c1,0,0,i,14,0,-8,15,-23,
CCOC(=O)CNC(=O)C1CCN(S(=O)(=O)c2ccc(-c3nn[nH]n3)cc2)CC1,6,4,.,2,-3,-16,7,-6,
CC(=O)Nc1c(C)nn(C(C)=O)c1C,-2,-2,i,-9,-2,-6,3,20,
O=C(CCCCC(=O)N1CCOCCOCCOCC1)OCc1ccccc1,7,6,i,8,-7,.,1,-3,
O=C(NC1c2ccccc2-c2ccccc21)N1CCOCC1,-28,-12,i,1,-8,-23,-6,.,
Cc1c(N)cc(S(=O)(=O)O)cc1NC(=O)c1cccc([N+](=O)[O-])c1,-2,0,.,.,.,6,.,-18,
CCOc1ccc(C(=O)Nc2ccccc2N2CCN(C(=O)c3ccccc3)CC2)cc1[N+](=O)[O-],3,-5,i,0,10,-6,5,0,
Cc1onc(-c2c(F)cccc2Cl)c1C(=O)OCN1C(=O)c2ccccc2C1=O,1,3,i,-6,.,4,3,.,
COCCCNC(=O)Cn1cc(C(=O)c2cccs2)c2ccccc21,6,4,i,-4,-9,-3,6,.,
CCc1nnc(NC(=O)Nc2ccc(OC)cc2)s1,12,4,i,4,2,11,-9,.,
Cc1csc(NC(=O)c2ccncc2)n1,0,5,i,26,-15,-5,13,3,
O=C(NC1CCCC1)C(c1ccc(N2CCOCC2)cc1)N(C(=O)c1ccco1)c1ccccc1F (configuration not stated),-4,-5,i,-12,-15,.,-15,8,
O=C(NNC(=O)C1CCCC1)c1ccc(F)cc1,3,-2,.,-6,-18,-4,-4,3,
NNC(=S)NCc1cccnc1,0,3,i,1,-8,.,-6,-5,
Cc1ccc(NC(=S)N2CCC(C(=O)c3ccc(F)cc3)CC2)cc1C,3,-3,.,.,.,-32,.,5,
O=c1cc(O)nc2n1CCCS2,-10,1,i,-9,-8,-18,5,44,
CC(C)NC(=O)c1ccc2sc([C@H]3C[C@H](O)[C@@H](CO)O3)nc2c1,-1,4,.,.,.,-26,.,44,
NC(=O)c1cccc2c1C(=O)N(C1CCCCC1)C2,1,0,i,42,-7,-10,-22,-8,
CNC(=O)CCc1[nH]c2ccccc2c1Sc1ccccc1,1,1,i,-1,-23,.,-6,9,
COc1ccc(C(=O)NCc2nnc(SCC(=O)N3CCCCC3)o2)cc1,0,1,i,-2,-7,.,-4,13,
CN(C)S(=O)(=O)c1ccc(NC(=O)c2ccncc2)cc1,-1,6,i,-13,-5,.,-10,6,
COc1ccc(F)cc1S(=O)(=O)NC(Cc1ccccc1)C(N)=O (configuration not stated),-1,-1,i,9,-6,-6,-10,.,
O=C(CSc1ncn[nH]1)N1N=C2/C(=C/c3ccccc3)CCCC2C1c1ccccc1 (configuration not stated),-6,1,i,-9,.,.,-6,-3,
CCOC(CNC(=O)c1cc(C)nn1-c1ccccc1)OCC,8,4,i,-15,-10,-12,-6,-12,
O=C(Nc1ccc(F)cc1)Nc1ccc2c(c1)OCO2,1,2,i,-1,12,-12,6,-36,
O=C(Nc1cccc(-c2nnc(-c3ccccc3)o2)c1)C1CCCCC1,2,-4,i,0,-19,-12,-2,-46,
Cc1ccc(S(=O)(=O)Nc2ccc(C(=O)N3CCOCC3)cc2)cc1,2,-4,i,3,.,-1,-4,-6,
COc1ccc(N(Cc2ccccc2)S(=O)(=O)c2cccc(C(=O)Nc3ncccc3C)c2)cc1,-1,-5,.,.,.,-19,.,2,
CC1CCN(C(=O)CSc2nc3c(c(=O)n2C)SCC3)CC1,1,-3,i,9,-11,0,-3,-5,
COc1c(C)cc(Br)cc1C(=O)NC(=S)NCc1ccco1,-4,1,i,-6,22,-4,-3,8,
Cc1nn(-c2ccccc2)c2ncc(C(=O)c3cc(Cl)ccc3O)cc12,-8,-2,i,-4,46,87,-5,2,
Cc1c(C(=O)Nc2cccc([N+](=O)[O-])c2)csc1-c1ccccc1,-4,-9,i,1,14,-19,2,i,
COc1ccc(CNc2c(C(=O)O)cnc3c2cnn3C)cc1,0,-5,i,-3,-2,-15,0,14,
CCc1ccc(N=C2NC(=O)/C(=C/c3cc(Br)c(OCC(=O)O)c(OC)c3)S2)cc1,0,1,i,81*,4,-29,37,1,eIF4H inh retest=96*;PABP FP inh retest=49
COc1ccc(C(=O)Nc2ccnn2C2CCN(Cc3ccccn3)CC2)cc1,-5,4,i,27,-12,-16,11,7,
Cc1ccc(Nc2nnc(SCc3nc4ccccc4c(=O)[nH]3)s2)cc1,-2,-3,i,-6,-4,-14,6,26,
Cc1c(NC(=O)COC(=O)c2ccc(Br)o2)c(=O)n(-c2ccccc2)n1C,-2,0,i,-1,7,6,-12,-10,
CCOc1ccc(NC(=O)COC(=O)C2C3CC4OC(=O)C2C4C3)cc1 (configuration not stated),5,5,i,2,-13,-10,5,-11,
CN(c1ccccc1)S(=O)(=O)CS(=O)(=O)N(C)c1ccccc1,-3,-1,.,.,.,-15,.,3,
COC(=O)C1CCN(S(=O)(=O)c2ccc(NC(C)=O)cc2)CC1,0,-5,i,-6,-5,-13,13,6,
CNC[C@H]1Oc2ccc(NC(=O)Nc3ccc4c(c3)OCO4)cc2C(=O)N([C@H](C)CO)C[C@@H]1C,6,2,.,.,10,-9&15,.,-11[16.7 µM],
CCOC(=O)c1sc(NC(=O)c2ccc(S(=O)(=O)N(CC)CC)cc2)nc1C,2,0,.,-7,-10,-23,-13,-13,
CCOC(=O)c1c(C)n(C)c2cc(Br)c(C(=O)OC)cc12,10,4,i,2,-5,-3,1,.,
COc1ccc(/C=C(\C#N)C(=O)c2c(C)[nH]c3ccccc23)cc1OC,-2,6,i,2,19,4,9,-9,
# Continuation.
SMILES,MT1-MMP act inh,MT1-MMP act inh RFP,Rce1 inh,eIF4H inh,CSC inhib,Yeast UUG start,PABP FP inh,Env fusion inh,others
O=C(NNC1=C(C(=O)C(F)(F)F)CCC1)c1cccc(O)c1,5,3,i,-1,-8,-25,-5,.,
O=c1[nH]c(CN2CCc3ccccc3C2)nc2ccccc12,-12,-1,i,-2,4,-5,1,-71,
CC(Oc1ccc(Cl)cc1Cl)C(=O)NCCCN(C)C (configuration not stated),3,5,i,7,-10,-5,2,.,
CC(C)(C)OC(=O)C[C@@H]1C/C=C\C[C@@H](CC(=O)NCCO)C(=O)NC[C@H](c2ccccc2)OC1=O,4,5,.,.,0,2,.,6,
Cc1ccc(S(=O)(=O)N(CCC(=O)O)c2ccccc2)cc1,-6,-1,i,2,-11,.,6,-24,
COc1ccccc1NC(=O)c1csc2c1CCC(C)C2 (configuration not stated),0,2,i,-4,-9,.,-10,-21,
Cc1sc(NC(=O)c2cc(-c3ccccc3)nc3ccccc23)c(C(N)=O)c1C,10,-16,i,-2,4,.,2,.,
COc1ccccc1C#CC1=CC(=O)CC(C)(C)C1,-1,-2,.,.,.,-14,.,15,
COc1ccc(OC)c(CNC(=O)Cn2nc(C)c3c(C)n(-c4ccc(C)cc4)nc3c2=O)c1,11,-27,i,.,-9,-12,.,11,
COc1ccc(S(=O)(=O)Nc2c(C)nc3nc[nH]n3c2=O)cc1,-5,-2,i,-4,.,-7,2,0,
CCc1ccc(C(=O)N2CCN(c3ccc(NC(=O)c4ccco4)cc3)CC2)cc1,2,-7,i,-10,30,-2,-8,11,
CCCC(C(=O)NCCc1ccc(S(N)(=O)=O)cc1)c1ccccc1 (configuration not stated),1,0,i,-6,-5,-3,-4,9,
CCn1c2ccccc2c2cc(NC(=O)C(C)Oc3ccccc3)ccc21 (configuration not stated),-7,-2,i,-9,41,-10,6,.,
COc1ccc(OCc2cc(C(=O)N3CCOCC3)no2)c(Cl)c1,2,2,i,2,9,-3,0,-39,
Cc1ncc(CN2CCC(C(=O)Nc3ccc(-n4cccn4)cc3)CC2)s1,-1,-2,i,-5,-12,-8,9,18,
Cc1c(N=Cc2nc3ccccc3[nH]2)c(=O)n(-c2ccccc2)n1C,0,-1,i,-2,13,-25,-11,.,
O=C(CCN1C(=O)C2C3C=CC(C3)C2C1=O)NC1CCCCC1 (configuration not stated),-6,2,i,0,1,-16,-1,3,
C=CCn1c(C)csc1=Nc1ccc(C(C)=O)cc1,-3,0,i,-12,0,.,-8,1,
N#Cc1cc2c(nc1SCC(O)CS(=O)(=O)Cc1ccc(Cl)cc1)CCCC2 (configuration not stated),1,-7,i,-2,-22,-5,-7,.,
CC(C)NC(=O)c1onc(CSc2ccc(C(C)C)cc2)c1C(=O)O,3,5,i,0,-15,-1,-6,-42,

# Ordered by molar mass (smallest number first): part of the list above.
SMILES,MT1-MMP act inh,MT1-MMP act inh RFP,Rce1 inh,eIF4H inh,CSC inhib,Yeast UUG start,PABP FP inh,Env fusion inh,others
C=CCn1c(C)csc1=Nc1ccc(C(C)=O)cc1,-3,0,i,-12,0,.,-8,1,
O=C(CCN1C(=O)C2C3C=CC(C3)C2C1=O)NC1CCCCC1 (configuration not stated),-6,2,i,0,1,-16,-1,3,
COc1ccc(OCc2cc(C(=O)N3CCOCC3)no2)c(Cl)c1,2,2,i,2,9,-3,0,-39,
COc1ccc(OC)c(CNC(=O)Cn2nc(C)c3c(C)n(-c4ccc(C)cc4)nc3c2=O)c1,11,-27,i,.,-9,-12,.,11,
CC(C)(C)OC(=O)C[C@@H]1C/C=C\C[C@@H](CC(=O)NCCO)C(=O)NC[C@H](c2ccccc2)OC1=O,4,5,.,.,0,2,.,6,

# Screens: PubChem, several laboratories
